Mtb bLac sens – beta-lactam sensitization of Mtb H37Rv; M. tuberculosis H37Rv growth with meropenem, percent inhibition; hits of this screen are not shown here; inhibition, % at 25 µM; actives 0.27% (n = 330,000); AID 434955;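 active = about 74% or more and at least 40 points above the plate without the antibiotic, then above 30% in a dose series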;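 also: growth measured after seven days incubation then overnight dye step; 0% = bacteria only wells and 100% = bacteria with antibiotic; twin plates without the antibiotic show which effects depend on it; some results filed as inactive read as strong as hits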
Mtb H37Rv – M. tuberculosis H37Rv growth inhibitors, H37Rv strain (AID 1626) | M. tuberculosis H37Rv growth inhibition; higher % means a stronger effect | actives 0.95% (n = 220,000) | one-dose inhibition, % at 10 µM; IC50 in µM for titrated hits;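 active = confirmed in a dose series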;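 also: bacteria incubated seven days before Alamar blue readout; 0% = bacteria only wells and 100% = bacteria with antibiotic wells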
RecA splice inh – blocks M. tuberculosis RecA intein splicing; P9WHJ3; cell-free RecA intein splicing, fluorescence; inhibition, %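 (about 9 µM by stock and volumes)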; actives 0.75% (n = 290,000); AID 2221; in the data active = inhibition above about 30%;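 also: 0% = vehicle wells and 100% = reference inhibitor control wells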
Target sequence (P9WHJ3 whole entry, looked up, canonical isoform): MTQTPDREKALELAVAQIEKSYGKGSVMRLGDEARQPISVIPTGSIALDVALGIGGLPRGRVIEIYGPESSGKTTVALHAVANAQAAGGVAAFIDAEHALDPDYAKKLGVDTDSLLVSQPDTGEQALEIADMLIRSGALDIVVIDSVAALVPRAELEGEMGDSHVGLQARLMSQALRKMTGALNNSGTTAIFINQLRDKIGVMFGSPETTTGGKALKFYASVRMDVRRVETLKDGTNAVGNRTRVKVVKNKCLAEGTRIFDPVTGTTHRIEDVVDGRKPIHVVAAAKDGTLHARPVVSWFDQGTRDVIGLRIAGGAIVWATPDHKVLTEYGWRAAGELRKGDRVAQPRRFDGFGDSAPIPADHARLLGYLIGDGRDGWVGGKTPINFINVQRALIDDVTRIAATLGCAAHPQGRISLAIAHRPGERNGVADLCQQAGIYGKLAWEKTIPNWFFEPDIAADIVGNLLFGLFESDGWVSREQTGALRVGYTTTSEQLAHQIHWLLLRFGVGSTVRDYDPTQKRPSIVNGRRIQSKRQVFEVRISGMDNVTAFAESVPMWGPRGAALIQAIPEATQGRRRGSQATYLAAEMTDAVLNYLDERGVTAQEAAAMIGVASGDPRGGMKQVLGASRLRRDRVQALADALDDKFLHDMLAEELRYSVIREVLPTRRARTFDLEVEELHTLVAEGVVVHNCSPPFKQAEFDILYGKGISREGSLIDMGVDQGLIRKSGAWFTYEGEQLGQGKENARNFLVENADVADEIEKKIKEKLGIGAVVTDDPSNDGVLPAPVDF
YopH PTP inh – inhibitors of Yersinia enterocolitica YopH tyrosine phosphatase | inhibition, %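 (about 10 µM by stock and volumes)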 | fluorescence Ex485/Em525 | actives 0.16% (n = 140,000) | AID 898;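 active = inhibition of 50% or more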;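 also: controls were vehicle for no effect and minimum signal wells for full effect; inactives centre near -20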
Arbovirus inh – antivirals against arbovirus infection; arbovirus infection cell-based antiviral screen; inhibition, % at 10 µM; actives 0.37% (n = 200,000);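 active = inhibition from about 30%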;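 also: bluetongue infection of BSR cells; cell survival read as ATP light after 72 h; 0% = infected wells without compound and 100% = uninfected wells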
Arbovirus inh repeat – also measured in Arbovirus inh; calls as there; inhibition, %; measured here: 10K subset replicate screen; many hits read low in the repeat;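 first of two repeat runs on a subset; 0% = infected and 100% = uninfected wells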
The depositor's hits bear a star; i = inactive; nt = not tested or not shown.

SMILES | Mtb bLac sens | Mtb H37Rv | RecA splice inh | YopH PTP inh | Arbovirus inh | others
Cc1ccc(Cn2ccc(NC(=O)c3cc4nc(-c5ccco5)cc(C(F)(F)F)n4n3)n2)cc1 | 1 | -6% | -1.7 | -15 | -1
CCCC(=O)Nc1ccc(Cl)c(NC(=O)c2cccc(OC)c2)c1 | -2 | 0% | -3.5 | nt | -3
COc1ccc(C(=O)C2CCN(CC(=O)Nc3ccc(OC)cc3OC)CC2)cc1 | 56 | nt | 3.6 | nt | nt
O=C(N/N=C/c1ccc2c(c1)OCO2)c1cc(-c2ccc(F)cc2)nc2ccccc12 | -2 | 1% | -4.4 | -12 | -13
CC1CCN(CCCCOc2ccccc2[N+](=O)[O-])CC1 | 2 | -5% | 1.6 | -30 | 5
O=S(=O)(c1ccc(OC(F)(F)F)cc1)N1CCCC(N2CCOCC2)C1 (stereo unspecified) | -6 | nt | -0.7 | nt | nt
Cc1cc(C)nc(SCC(=O)NNC(=O)c2cccs2)n1 | 5 | -3% | -1.5 | nt | -1
CN(C)CCCNc1ncnc2sc(-c3ccccc3)cc12 | -8 | 1% | -2.4 | nt | nt
O=C(O)CCc1ccc(-c2ccc(F)cc2)n1CC1CCCO1 (stereo unspecified) | 8 | 2% | -6.1 | -31 | 7
Cc1cccc(Nc2ccncc2S(N)(=O)=O)c1 | 5 | nt | 0.5 | nt | nt
COc1cc(OC)c(OC)cc1CN1CCCC(C(=O)N2CCCCC2)C1 (stereo unspecified) | 3 | -3% | -1.8 | -61 | 0
CC(C)CNc1nc2c(c(=O)n(C)c(=O)n2C)n1Cc1cccc(Br)c1 | -7 | -2% | -1.0 | 6 | 0
C/C(Cl)=C\Cn1c(NCCCn2ccnc2)nc2c1c(=O)n(C)c(=O)n2C | -2 | -13% | -1.2 | -27 | 2
Cc1c(C(=O)N2CCCCC2)c(S(=O)(=O)Nc2cccc(Br)c2)c(C)n1C | -3 | nt | 2.8 | nt | nt
COc1ccc(-c2cc(C(=O)NCc3cccs3)no2)cc1 | -6 | -3% | -1.5 | nt | nt
O=C(N/N=C1\NC(=O)C(CO)(CO)S1)c1ccccc1 | -5 | -1% | 0.1 | nt | nt
Oc1ccc(-c2cn3c(n2)SCC3)cc1O | -2 | -11% | -8.9 | -9 | 2
Cc1ccc2nc(-c3cccc(-c4cccc(Cl)c4)c3)c(NCc3ccccc3)n2c1 | 96 | nt | 11 | nt | nt
C(=N\n1c2ccccc2c2ccccc21)/c1ccccc1 | 3 | 4% | 0.7 | -15 | 7
CCOC(=S)SCC(=O)N1CCc2cc(OC)c(OC)cc2C1C1C(=O)CC(C)(C)CC1=O (stereo unspecified) | 3 | -3% | 1.0 | -8 | 15
CCOc1ccc(C=O)cc1CN1CCCCC1 | -1 | 3% | -0.2 | -14 | 3
O=c1c(Br)c(N2CCOCC2)cnn1-c1ccccc1 | 1 | 3% | 4.9 | nt | 2
CN(CC(=O)NCCc1ccccc1)S(=O)(=O)c1cccs1 | -6 | -3% | -1.6 | -44 | 3
CC1CCCCC1NC(=O)C1CCN(S(=O)(=O)N2CCC3(CC2)OCCO3)CC1 (stereo unspecified) | -5 | -1% | -1.2 | -36 | 1
CCOC(=O)c1c(-c2ccccc2)csc1NC(=O)COc1ccc2c(C)cc(=O)oc2c1 | 6 | -7% | -0.8 | -17 | -21
CCN1C=C(C(=O)OC)C(c2cccc(OC)c2OC)C(C(=O)OC)=C1 | -7 | -1% | i | nt | 2
O=C1CN(Cc2cc(=O)oc3cc4c(cc23)CCC4)CCN1 | 2 | 0% | -2.5 | nt | -2
CN(C)CCN1C(=O)C(O)=C(C(=O)c2cc3ccccc3o2)C1c1ccc(N(C)C)cc1 (stereo unspecified) | -5 | -12% | nt | 11 | 3 | Arbovirus inh repeat=-1
CC(=O)C1=C(O)C(=O)N(C2CCCCC2)C1c1ccccc1 (stereo unspecified) | -23 | -2% | 2.5 | -16 | 10
Cc1ccccc1NC(=S)N(CCN(C)C)C(C)c1ccco1 (stereo unspecified) | 7 | -15% | -0.6 | -18 | 6
O=C(CCN1C(=O)/C(=C/C=C/c2ccccc2)SC1=S)Nc1nc2ccccc2s1 | 48 | 2% | nt | -23 | -1
Cc1ccc(S(=O)(=O)N2CC=C(C(=O)NCc3ccc(F)cc3)CC2)cc1 | 8 | nt | nt | -20 | -6
COc1ccc(OC)c(NC(=O)CSc2nnc(-c3cccnc3)s2)c1 | 2 | -9% | -0.3 | nt | -4
O=C(CSc1ccccc1C(=O)O)NC12CC3CC(CC(C3)C1)C2 | -3 | -4% | -2.1 | nt | nt
Cc1cc(NS(=O)(=O)c2ccc(NC(=O)NC(C)(C(F)(F)F)C(F)(F)F)cc2)no1 | 13 | 4% | -2.4 | -15 | 6
N/C(=N/OS(=O)(=O)c1ccc([N+](=O)[O-])cc1)c1ccncc1 | 1 | 0% | -0.8 | nt | 3
CCN(CC)c1ccc(C(=O)OCc2cc(=O)oc3cc(O)ccc23)cc1 | 4 | 8% | -3.7 | -16 | 3
COc1ccccc1N1C(=O)NC(=O)/C(=C\c2cnn(-c3ccccc3)c2)C1=O | -9 | 4% | -0.1 | nt | 1
COc1cc(C=C2C(=O)c3ccccc3C2=O)ccc1O | -1 | -4% | 46* | nt | nt
CCc1nnc(NC(=O)CSc2nnc(Cc3cccn3C)n2CCOC)s1 | -1 | -6% | -1.8 | -48 | -3 | Arbovirus inh repeat=2
COC(=O)C1=C(Nc2cc(Cl)cc(Cl)c2)CSC1 | 3 | -10% | -3.4 | nt | nt
CCOC(=O)C1CCCN(C(=O)c2cc(-c3ccc(F)cc3)nc3ccccc23)C1 (stereo unspecified) | 1 | 0% | 6.4 | nt | 10
CNc1csc(C)c(C)c1=O | 6 | -9% | -5.3 | -27 | -5
CC1(C)CC(=O)C=C(Nc2ccc(S(N)(=O)=O)cc2)C1 | -5 | -3% | -1.1 | -24 | 16
O=C(CCNC(=O)c1ccccc1)Nc1cccnc1 | -1 | -1% | -3.4 | nt | 9
CCCCCC(=O)N/N=C/c1ccco1 | -4 | -12% | 3.6 | -39 | 7
Cc1nc2cc(-c3ccc(Cl)cc3)nn2c(C)c1CCC(=O)NCc1ccco1 | 0 | 10% | 1.5 | -49 | 10
CCOC(=O)c1cncc(C#CCO)c1 | 8 | -6% | 0.3 | nt | nt
Cc1ccc2c(c1)sc(=NC(=O)C1CC1)n2C | -1 | 0% | -1.9 | nt | nt
CSc1ccc(CNC(=O)C2CCC(=O)N(CCc3cccc(F)c3)C2)cc1 (stereo unspecified) | 2 | nt | 1.5 | nt | nt
CC(=O)N1CCC(N(CCN2CCOCC2)C(=S)Nc2cccc(C)c2C)CC1 | 2 | 7% | -1.9 | -8 | 3
Cn1c(=O)c2c([nH]c(OCc3ccc(Cl)cc3Cl)[n+]2Cc2ccc(F)cc2)n(C)c1=O | -4 | 5% | -0.8 | nt | nt
O=[N+]([O-])c1cc(Cl)ccc1-c1nc(-c2ccncc2)no1 | 2 | 4% | -3.5 | nt | -10
Cc1noc(NS(=O)(=O)c2ccc(NC(=O)c3ccc(N4C(=O)c5ccccc5C4=O)cc3)cc2)c1C | 0 | 6% | -0.7 | nt | 12
O=C(O)C1CSC2(c3ccc4c(c3)OCCO4)CCC(=O)N12 (stereo unspecified) | -2 | 8% | -5.3 | -40 | 3
O=[N+]([O-])c1ccc(NNC(=S)Nc2ccc(F)cc2)cc1 | 1 | 4% | -1.5 | -12 | -36
Cc1cc(-c2cccs2)c(C#N)c(=S)[nH]1 | -7 | -1% | 1.5 | nt | nt
COc1ccc(/C=C(\C#N)C(=O)OC2CCOC2=O)cc1 (stereo unspecified) | 5 | 4% | -2.5 | nt | 29
O=C(CCNC(=O)c1ccccc1Cl)NN1C(=O)NC2(CCCCC2)C1=O | -4 | nt | -0.6 | nt | nt
COc1ccc(C2(C(=O)Nc3ccc(C(=O)N4CCOCC4)cc3)CCOCC2)cc1 | 47 | -1% | -0.8 | -2 | -4
Next part.
SMILES | Mtb bLac sens | Mtb H37Rv | RecA splice inh | YopH PTP inh | Arbovirus inh | others
CCOC(=O)c1ccc(NC(=S)NCCc2ccc(F)cc2)cc1 | 59 | 79% | 3.7 | nt | -2
Cc1cc(C)nc(NC(=O)Nc2ccc(F)cc2F)n1 | 7 | nt | -0.9 | nt | nt
Cc1cc(S(=O)(=O)N2CCOCC2)ccc1NC(=O)c1ccc(F)cc1 | -12 | nt | 1.3 | nt | nt
CCOC(=O)C1CCN(C(=O)c2cc3ccc(OC)cc3[nH]2)CC1 | -3 | nt | -1.0 | nt | nt
CCS(=O)(=O)c1ccc2oc(SCC(=O)NCCC3=CCCCC3)nc2c1 | 2 | 2% | 1.9 | 0 | 7
CN1CCc2ccccc2CC1=O | 1 | 2% | -0.2 | -11 | 1
CCCCCOc1ccc(/C(C)=N/NC2=NCCN2)cc1 | 3 | nt | 4.4 | nt | nt
CCOC(=O)C(N)CSC1CC(=O)N(CCc2ccccc2)C1=O (stereo unspecified) | -16 | nt | -4.6 | nt | nt
N=c1nc(SCCC(=O)O)ss1 | 40 | -7% | 0.0 | -23 | -4
Cc1cccc(N(Cc2ccccc2)C(=O)CCl)c1 | nt | 71% | 58* | nt | -33
Cc1cccc(N2CC(C)Cn3c2nc2c3c(=O)n(CC(=O)OCc3ccccc3)c(=O)n2C)c1 (stereo unspecified) | 42 | 13% | 6.3 | -34 | -10
Cc1nc2ccccc2n1C(=O)c1ccc(Cl)cc1[N+](=O)[O-] | 6 | -10% | 0.8 | -11 | 5
C/C(=N\NC(=O)c1c(Br)c(C)nn1C)c1cccc(NC(=O)C2CCC2)c1 | -13 | nt | 0.8 | 20 | 2
O=S(=O)(Nc1ccc(N2CCCCC2)cc1)c1cccc2cccnc12 | -4 | 0% | -3.3 | -45 | -2
O=C(N/N=C/c1cccc([N+](=O)[O-])c1)c1ccc2nc[nH]c2c1 | -10 | -15% | 0.1 | -12 | 8
Cc1ccc2cc(CN(CC(C)C)S(=O)(=O)c3cccc4nonc34)c(=O)[nH]c2c1 | 4 | nt | -1.7 | nt | nt

In the list so far, 13 contain fluorine:
SMILES | Mtb bLac sens | Mtb H37Rv | RecA splice inh | YopH PTP inh | Arbovirus inh | others
Cc1ccc(Cn2ccc(NC(=O)c3cc4nc(-c5ccco5)cc(C(F)(F)F)n4n3)n2)cc1 | 1 | -6% | -1.7 | -15 | -1
O=C(N/N=C/c1ccc2c(c1)OCO2)c1cc(-c2ccc(F)cc2)nc2ccccc12 | -2 | 1% | -4.4 | -12 | -13
O=S(=O)(c1ccc(OC(F)(F)F)cc1)N1CCCC(N2CCOCC2)C1 (stereo unspecified) | -6 | nt | -0.7 | nt | nt
O=C(O)CCc1ccc(-c2ccc(F)cc2)n1CC1CCCO1 (stereo unspecified) | 8 | 2% | -6.1 | -31 | 7
Cc1ccc(S(=O)(=O)N2CC=C(C(=O)NCc3ccc(F)cc3)CC2)cc1 | 8 | nt | nt | -20 | -6
Cc1cc(NS(=O)(=O)c2ccc(NC(=O)NC(C)(C(F)(F)F)C(F)(F)F)cc2)no1 | 13 | 4% | -2.4 | -15 | 6
CCOC(=O)C1CCCN(C(=O)c2cc(-c3ccc(F)cc3)nc3ccccc23)C1 (stereo unspecified) | 1 | 0% | 6.4 | nt | 10
CSc1ccc(CNC(=O)C2CCC(=O)N(CCc3cccc(F)c3)C2)cc1 (stereo unspecified) | 2 | nt | 1.5 | nt | nt
Cn1c(=O)c2c([nH]c(OCc3ccc(Cl)cc3Cl)[n+]2Cc2ccc(F)cc2)n(C)c1=O | -4 | 5% | -0.8 | nt | nt
O=[N+]([O-])c1ccc(NNC(=S)Nc2ccc(F)cc2)cc1 | 1 | 4% | -1.5 | -12 | -36
CCOC(=O)c1ccc(NC(=S)NCCc2ccc(F)cc2)cc1 | 59 | 79% | 3.7 | nt | -2
Cc1cc(C)nc(NC(=O)Nc2ccc(F)cc2F)n1 | 7 | nt | -0.9 | nt | nt
Cc1cc(S(=O)(=O)N2CCOCC2)ccc1NC(=O)c1ccc(F)cc1 | -12 | nt | 1.3 | nt | nt

The list is partial; the hit share may differ from the screen's.
